Screening data as filed in PubChem BioAssay.
RE007 growth inh: qHTS Assay for Inhibitors of the HIV-1 protein Vpr; 360,000 compounds, 0.21% hits; S. pombe RE007 Vpr strain, BacTiter-Glo ATP luminescence, 24 h; control for the full effect not named in the record; Potency, µM (titrated, usually from 92.2 µM), for inactives: at the highest dose activity change, negative = less growth; active = well fitted falling curve with a large enough effect; inconclusive = small, poorly fitted or top-dose-only effect; inactive = no such curve, though single readings can be large or run the other way;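 note: % is set by controls: 0 for no effect and ±100 for the full control effect; nearly all actives have a fitted effect of over 50% in size; the assay follows cell death caused by Vpr and the record does not say whether a fall means rescue or toxicity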
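Fission yeast RE007 carrying one integrated HIV-1 vpr copy, seeded at OD 0.01 in PMG+AL medium with 23 nL pinned compound. Grown 24 h at 30 degrees; viability read by BacTiter-Glo luminescence after 5 min.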
Lassa entry inh: qHTS for Inhibitors of binding or entry into cells for Lassa Virus | Potency, µM (series often up to 37.9 µM), for inactives: top-dose activity change, negative = inhibition, actives largely listed as inhibitors | Lassa virus pseudotype entry inhibition, cell reporter; control for the full effect not named in the record | 300,000 compounds, 1.2% hits; active means well fitted inhibition curve with a large enough effect; inconclusive means small, poorly fitted or top-dose-only effect, or effect the other way; inactive means flat fitted curve, though single readings scatter; tested in HEK293 cells; note: % is set by controls: 0 for no effect and ±100 for the full control effect; nearly all actives have a fitted effect of over 50% in size; luciferase read-out
Cruzain noTriton: qHTS Assay for Promiscuous and Specific Inhibitors of Cruzain (without detergent). Cruzipain (Trypanosoma cruzi), P25779. purified cruzain, Z-FR-AMC fluorescence, no detergent. Potency, µM, inactives show max response, negative = inhibition, hits mostly inhibitors. 200,000 compounds, 2.3% hits. AID 1476, 2009;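 note: plate controls were enzyme without inhibitor for no effect and buffer without enzyme for full effect; nearly all actives have a fitted effect of over 40% in size; top concentration of the series not given in the record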
Target sequence (P25779 123-467 limits assumed): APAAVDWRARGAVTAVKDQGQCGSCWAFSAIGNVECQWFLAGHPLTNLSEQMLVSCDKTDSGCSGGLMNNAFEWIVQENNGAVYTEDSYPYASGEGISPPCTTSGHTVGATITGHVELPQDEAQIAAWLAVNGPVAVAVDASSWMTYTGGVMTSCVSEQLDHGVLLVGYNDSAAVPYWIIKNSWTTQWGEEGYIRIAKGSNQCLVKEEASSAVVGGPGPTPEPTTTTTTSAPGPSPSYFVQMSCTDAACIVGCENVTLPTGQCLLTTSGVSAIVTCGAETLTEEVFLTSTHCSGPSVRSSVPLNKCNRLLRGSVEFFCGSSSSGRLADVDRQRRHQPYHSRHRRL
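Purified cruzain at 1.5 nM, pre-incubated 15 min with compound at room temperature in 100 mM sodium acetate pH 5.5, 5 mM DTT, 0.00005% Triton X-100. Reaction started with 2 uM Z-FR-AMC; AMC fluorescence increase over 60 s gives rate.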
NS1 function inh: qHTS Assay for Inhibitors of Influenza NS1 Protein Function. S. cerevisiae slowed by influenza A NS1, growth recovery by OD600. Potency, µM (highest dose often 46.1 µM), for the others: top-dose activity, positive = more growth. 270,000 compounds, 0.4% hits. AID 2326, 2010; active means well fitted rising curve with a large enough effect; inconclusive means small, poorly fitted or top-dose-only effect; inactive means no such curve, though single readings can be large or run the other way; note: nearly all actives have a fitted effect of over 50% in size
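Recovery from NS1-induced slow growth read by OD600 in budding yeast switched to galactose assay medium (pH 6.0, -URA) at 1:100 dilution. Compound 23 nl per well; the matching strain lacking NS1 serves as control.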
Cruzain inh Det: qHTS Assay for Promiscuous and Specific Inhibitors of Cruzain (with detergent). purified cruzain, Z-FR-AMC fluorescence, 0.01% Triton. Potency, µM, inactives show max response, negative = inhibition, actives largely listed as inhibitors. AID 1478, 2009. 200,000 compounds, 0.43% hits. Cruzipain (Trypanosoma cruzi), P25779;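 note: plate controls were neutral wells for no effect and buffer without enzyme for full effect; nearly all actives have a fitted effect of over 40% in size; top concentration of the series not given in the record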
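Steps: dispense cruzain (1.5 nM final) in acetate buffer pH 5.5 with DTT and 0.01% Triton X-100; pin-transfer compounds; incubate 15 min RT; add Z-FR-AMC (2 uM final); read fluorescence every 30 s, using the 60 s intensity change.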
SARS PLP yeast: qHTS of Yeast-based Assay for SARS-CoV PLP | AID 485353, 2010 | Potency, µM (titrated, usually from 32.9 µM), for the others: at the highest dose activity, positive = growth rescue | 330,000 compounds, 0.19% hits | S. cerevisiae expressing SARS-CoV PLpro, growth rescue; control for the full effect not named in the record; active means well fitted rising curve with a large enough effect; inconclusive means small, poorly fitted or top-dose-only effect; inactive means no such curve, though single readings can be large or run the other way; note: 0% is about no effect; nearly all actives have a fitted effect of over 55% in size; growth read by luminescence after 48 h
2A StopGo: High Throughput Screening for Foot and Mouth Disease Virus Antivirals; human cells with a luciferase reporter of 2A StopGo recoding; control for the full effect not named in the record; Potency, µM (highest dose often 57.9 µM), inactives show top-dose signal change, negative = less light; 410,000 compounds, 1.2% hits; active = well fitted falling curve with a large enough effect; inconclusive = small, poorly fitted or top-dose-only effect; inactive = no such curve, though single readings can be large or run the other way; tested in HEK293T cells; note: % is set by controls: 0 for no effect and ±100 for the full control effect; nearly all actives have a fitted effect of over 45% in size; luciferase light after 4 h
Marburg entry inh: qHTS for inhibitors of binding or entry into cells for Marburg Virus | Marburg virus pseudotyped entry inhibition, cell reporter; control for the full effect not named in the record; about a third of the inactives were read at about 46 µM | Potency, µM (series often up to 37.8 µM), without a hit: at the highest dose activity change, negative = inhibition, most hits filed as inhibitors | 300,000 compounds, 1.8% hits | AID 540276, 2011; active = well fitted inhibition curve with a large enough effect; inconclusive = small, poorly fitted or top-dose-only effect, or effect the other way; inactive = flat fitted curve, though single readings scatter; tested in HEK293 cells; about a fifth of its hits are not listed in these tables; note: % is set by controls: 0 for no effect and ±100 for the full control effect; luciferase read-out
Active calls of the source: *; ? = inconclusive; nt = not tested or not shown; & = joins results of further samples; [ ] = remark or other dose. Unless noted, calls come from the whole dose curve; as a rule, active = well fitted curve in the direction sought with a large enough effect; inconclusive = small, poorly fitted or top-dose-only effect, or another doubt; inactive = no such curve, though single readings can be large; an effect the other way counts as inactive or inconclusive. Potency is the fitted concentration of half-maximal effect.

SMILES	RE007 growth inh	Lassa entry inh	Cruzain noTriton	NS1 function inh	Cruzain inh Det	SARS PLP yeast	2A StopGo	Marburg entry inh
CCCCC(=O)Nc1ccc(F)c(Cl)c1	5%	16%	3%	-36%	-2.2%	-4%	32%[activator]	18%
CSc1ccccc1NC(=O)Cn1c(-c2cscn2)nc2ccccc21	11%	12%	5%	-37%	0.9%	-4%	-15%	?
CCCOc1ccc(NC(=O)c2c(-c3ccccc3)noc2C)cc1	-17%	nt	-7%	4%	-0.5%	7%	-19%	nt
COc1ccc(NC(=O)C/C(C)=N/NC(=O)C(=O)Nc2cccc(Cl)c2C)c(OC)c1	3%	6%[46.1 µM]	nt	nt	nt	-4%	-1%	?
CCN1CC=C2C(C#N)=C(N)C(C#N)(C#N)C(c3cc(Cl)ccc3Cl)C2C1 (configuration not stated)	-17%	0%	?	9%	?	-9%	-27%	-8%
COc1cc(C2C(C#N)=C(N)N(N(C)C)C3=C2C(=O)CCC3)cc(OC)c1OC (configuration not stated)	1%	8%[46.1 µM]	nt	2%	nt	0%	-9%	-16%[46.1 µM]
COc1ccccc1CNC(=O)CCNC(=O)N1CC(=O)Nc2ccccc21	4%	nt	nt	-5%	nt	-2%	-17%	nt
CSc1ccccc1C(=O)C1CCCN(C(=O)c2csnn2)C1 (configuration not stated)	1%	7%[46.1 µM]	nt	0%	nt	-1%	11%	?
O=C(N/N=C/c1cccnc1)c1cc(O)c(O)c(O)c1	0%	?	nt	7%	nt	0%	12%	3.2µM*
Cc1ccc(NC(=O)C/C(N)=N/O)cc1C	1%	-11%	-2%	5%	4.7%	-3%	-24%	0%
CCc1cc(-c2n[nH]c(CCC(=O)O)c2-c2nc3ccccc3n2C)c(O)cc1O	10%	9%[46.1 µM]	nt	nt	nt	-4%	-3%	5%[46.1 µM]
COc1ccccc1NS(=O)(=O)c1ccc2oc(SC)nc2c1	0%	12%	nt	-1%	nt	-3%	-10%	-23%[46.1 µM]
O=C(c1cc(COc2ccc(F)cc2F)on1)N1CCSCC1	8%	?	nt	?	nt	-1%	34%[activator]	?
COc1ccc2c(c1)c1c(c(=O)n(CCc3ccccc3)c(=O)n1Cc1ccc(F)cc1)n2C	nt	1%[46.1 µM]	-11%	nt	7.7%	nt	-10%	nt
CN1CC(=O)N(CCOc2ccccc2)C1=O	13%	?	-9%	-10%	-1.1%	1%	-3%	11%
O=C(CSc1ccccc1)NCc1ccccc1	-6%	13%	nt	-2%	nt	1%	22%	10%
CCSc1nnc(NC(=O)Cn2cnc3c2c(=O)n(C)c(=O)n3C)s1	-13%	16%	nt	6%	nt	6%	-10%	5%[46.1 µM]
Cc1ccccc1N1CC(c2nnc(NC(=O)c3ccco3)s2)CC1=O (configuration not stated)	nt	-2%[46.1 µM]	-4%	nt	-7.9%	nt	0%	-1%[46.1 µM]
COc1ccccc1NC(=O)/C(C#N)=C/c1cc([N+](=O)[O-])ccc1N1CCCC1	-4%	0%	?	3%	-4.6%	25%	-19%	?
CC(=O)Nc1cccc(N2C(=O)CC(Cc3ccccc3)C2=O)c1 (configuration not stated)	3%	-3%	-3%	0%	4.1%	?	-8%	0%
CCCCC(=O)NC(=S)Nc1ccccc1C(=O)Nc1ccccc1	13%	-11%[14.3 µM]	?	-4%	4.5%	-1%	48%	1%
CC(=O)Nc1ccc(C)c(NC(=S)Nc2ccc(F)cc2)c1	3%	nt	nt	0%	nt	0%	12%	nt
CCOCCCNC(=O)c1cn(CC(C)C)c(=O)c2c1c1ccccc1n2C	-5%	-19%	?	4%	-1.8%	2%	-13%&-30%	?
O=C(Nc1ccc2c(c1)OCCO2)NC1CCCCC1	0%	?	2%	-11%	0.0%	-2%	-12%	2%
Cc1c(C)c2ccc(OC(C)C(=O)NC3CC(C)(C)NC(C)(C)C3)cc2oc1=O (configuration not stated)	0%	?	nt	-21%	nt	-1%	-11%	3%[46.1 µM]
Cc1ccc(CSc2nc3sc(C)c(C)c3c(=O)n2Cc2ccco2)cc1	-8%[3.69 µM]	2%	?	-1%	-1.5%	-8%	2%	-3%
CC1=C(c2ccc(C(C)C)cc2)S(=O)(=O)N=C1N1CCN(C(=O)c2ccco2)CC1	-3%	-2%[46.1 µM]	nt	3%	nt	24%	?	9%[46.1 µM]
CCC(C)(C)n1nnnc1C(c1ccc(C)cc1)N1CCCC1 (configuration not stated)	-10%	3%	-7%	-4%	1.8%	1%	nt	-26%
Cc1cc(C(=O)N2CCN(c3ccccc3)CC2)no1	0%	-5%	9%	-4%	0.5%	3%	17%	9%
COc1cc(C2C(C#N)=C(C)NC3=C2C(=O)CC(C)(C)C3)cc(OC)c1O (configuration not stated)	-7%	-6%	-1%	-4%	-7.9%	-2%	-8%	8%
Cc1ccc(Cn2cccc(NC(=O)NC3CCCCC3)c2=O)cc1	20%	-21%	-17%	-10%	-4.9%	1%	?	?
COc1cc(NC(=O)C(C)Oc2ccccc2)ccc1NC(=O)COc1ccccc1 (configuration not stated)	-16%	-19%	nt	-16%	nt	-5%	?	?
COc1ccc(C(=O)N(CCCO)C(C)C(=O)NC2CCCCC2)cc1OC (configuration not stated)	11%	-5%[14.3 µM]	17%	-3%	1.4%	0%	18%	15%
S=C(Nc1ccccc1)N1CCCCCCC1	5%	12%	nt	1%	nt	0%	-7%	30%[46.1 µM]
COc1ccc(-n2c3c(cc(-c4nc(-c5ccc(Cl)cc5)cs4)c2=O)C(=O)CC(C)(C)C3)cc1Cl	nt	4%[46.1 µM]	10%	nt	0.4%	nt	2%	?
COc1cccc2c1OCC(C(=O)O)C2 (configuration not stated)	-13%	-4%	nt	3%	nt	0%	-5%	?
Cn1c(=O)c2c(nc(NC3CCCC3)n2C)n(C)c1=O	-1%	nt	nt	1%	nt	-1%	-9%	nt
CC(=O)N1c2ccc(S(=O)(=O)N3CCCCCC3)cc2CC1C(=O)NCc1ccc(Cl)cc1 (configuration not stated)	nt	-8%[46.1 µM]	-9%	nt	-0.9%	nt	14%	nt
COc1ccc(S(=O)(=O)N2CC(O)CC2C(=O)OCC(=O)Nc2ccc(Cl)cn2)cc1 (configuration not stated)	4%	?	1%	-1%	-5.2%	-2%	-2%	2%&6%
CC(=O)CN1C(=O)NC(c2ccccc2)(c2ccccc2)C1=O	-4%	11%	nt	1%	nt	-2%	-1%	0%[46.1 µM]
O=C(Nc1ccc(F)c(Cl)c1)c1cncs1	15%	12%[46.1 µM]	nt	1%	nt	-4%	-5%	-2%[46.1 µM]
C#CCSc1nc(-c2cccs2)ccc1C#N	13%	-20%	-7%	3%	-8.5%	4%	?	-18%
CC(C)Cc1nc(SCC(=O)N2CCOCC2)c2c(=O)n(C)c(=O)n(C)c2n1	-6%	nt	nt	2%	nt	0%	-10%	nt
Cc1ccc(Cl)c(NC(=O)COC(=O)c2nn(-c3ccccc3)cc2O)c1Cl	-14%	-23%	nt	nt	nt	-45%	7%	?
COCCCNC(=O)C1CCN(C(=O)c2oc3cc4sc(N(C)C)nc4cc3c2C)CC1	3%	nt	nt	-7%	nt	45%	7%	nt
Cc1ccc2cc(CN(CCCN(C)C)C(=O)NCc3ccccc3)c(=O)[nH]c2c1C	0%	2%	-1%	6%	-4.2%	0%	-1%	?
O=C(COC(=O)c1c(F)cccc1Cl)NCC1CCCCC1	15%	?	nt	nt	nt	12%	0%	?
COc1ccc(N2CC(C(=O)Nc3nnc(C4CCCCC4)s3)CC2=O)cc1 (configuration not stated)	-15%	-27%	nt	2%	nt	-1%	-2%	2%[46.1 µM]
c1ccc2c(c1)oc1c(NCCN3CCOCC3)ncnc12	8%	-4%[14.3 µM]	1%	?	-0.4%	4%	30%[activator]	0%
CC(=O)c1ccc(NC(=O)N2CCc3ccccc3C2)cc1	10%	4%	nt	nt	nt	-6%	54%[activator]	-3%[46.1 µM]
Next results.
SMILES	RE007 growth inh	Lassa entry inh	Cruzain noTriton	NS1 function inh	Cruzain inh Det	SARS PLP yeast	2A StopGo	Marburg entry inh
COc1cc2ccccc2cc1C(=O)OCC(=O)c1c(N)n(C)c(=O)n(C)c1=O	9%	1%	nt	nt	nt	-3%	?	-11%
Cc1[nH]c(C)c(S(=O)(=O)N2CCN(c3ccccc3F)CC2)c1C(=O)N1CCCCC1	5%	-21%[46.1 µM]	nt	7%	nt	1%	11%	?
O=c1cc(CN2CCN(S(=O)(=O)c3ccc4c(c3)OCCO4)CC2)c2ccc(O)cc2o1	4%	8%	-13%	10%	-3.3%	9%	-23%	-20%
Clc1cccc(-n2ncc3c(NCCC4=CCCCC4)ncnc32)c1	nt	13%[46.1 µM]	-3%	nt	1.9%	nt	42%[activator]	nt
Cc1ccccc1C(=O)NC(NCc1ccco1)C(Cl)(Cl)Cl (configuration not stated)	-11%	-17%	4%	-3%	7.0%	10%	-12%	?
O=C(/C=C/c1ccc(Cl)cc1)NC(=S)Nc1ccc(N2CCOCC2)c(Cl)c1	-30%	?	?	19%	-5.3%	15%	-21%	?
NS(=O)(=O)c1ccc(CCNC(=O)C2CCN(S(=O)(=O)c3ccccc3)CC2)cc1	4%	0%	nt	-8%	nt	-1%	-13%	14%[46.1 µM]
O=[N+]([O-])c1ccc(N2CCNCC2)cc1NC1CC1	nt	nt	1%	5%	-5.6%	1%	nt	nt
COc1cc(OC)cc(C(=O)Nc2ccc(Br)cc2C(=O)c2ccccc2)c1	-13%	-10%	-3%	8%	-0.2%	20%	-14%	-1%
CC(C)c1ccc(N(CC(=O)NN=C2CCN(C)CC2)S(=O)(=O)c2ccccc2)cc1	-17%	nt	nt	nt	nt	3%	-11%	-10%[46.1 µM]
Cc1ccc(NC(=O)CSc2nccn2Cc2ccc3c(c2)OCO3)c(C)c1	nt	4%[46.1 µM]	-1%	nt	-3.2%	nt	8%	nt
